Screening data (PubChem BioAssay)
ID4 SMM: ID4 (human) binding; P47928; small molecule microarray, Flag-ID4 binding, fluorescence F/B; calls only; 31,000 compounds, 1.2% hits;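 active means spot signal over background at p below 0.07 in all four prints; compounds were printed on slides so no solution concentration is given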;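 further: a binder raises fluorescence above local background on the spot; about 2 pmol printed per array spot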
Target sequence (P47928 whole entry, looked up): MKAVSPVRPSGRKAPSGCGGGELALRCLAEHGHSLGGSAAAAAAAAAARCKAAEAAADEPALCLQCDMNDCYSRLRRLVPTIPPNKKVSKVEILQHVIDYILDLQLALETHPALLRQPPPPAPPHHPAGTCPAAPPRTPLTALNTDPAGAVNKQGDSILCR
Calls only. This is a subset (hit frequency here may not be typical).

`O=C(NCc1ccco1)C1CCCN(S(=O)(=O)c2ccc(F)cc2)C1` (stereo not given) gave ID4 SMM inactive.
For COCC#Cc1cnc2c(c1)C(=O)N([C@H](C)CO)C[C@H](C)[C@H](CN(C)Cc1ccc(F)cc1)O2 the results were ID4 SMM inactive.
COc1ccc(S(=O)(=O)N[C@@H]2C=C[C@@H](CC(=O)N3CCc4ccccc4C3)O[C@@H]2CO)cc1 was read as ID4 SMM inactive.
Screening C[C@@H]1CN([C@H](C)CO)C(=O)c2cc(-c3cccc(F)c3)cnc2O[C@H]1CN(C)Cc1cccc(F)c1 returned ID4 SMM inactive.
C/C=C/c1cnc2c(c1)C(=O)N([C@@H](C)CO)C[C@H](C)[C@@H](CN(C)C(=O)Nc1cccc(OC)c1)O2 was read as ID4 SMM inactive.
For COc1ccc(OC)c(NC(=O)CNC(=O)c2ccc(OC)c(OC)c2)c1 the results were ID4 SMM inactive.
For CC(C)CC#Cc1cnc2c(c1)C(=O)N([C@H](C)CO)C[C@@H](C)[C@H](CN(C)C(=O)C1CCCCC1)O2 the results were ID4 SMM inactive.
`Cc1cccc(NC(=O)CSc2nc3c(cc2C#N)CCCCC3)c1` gave ID4 SMM inactive.
Cc1cccc(C)c1OCC(=O)Nc1ccc(O)cc1C(=O)O was read as ID4 SMM inactive.
C[C@@H]1CN([C@@H](C)CO)C(=O)c2cc(/C=C/c3ccccc3)cnc2O[C@@H]1CN(C)C(=O)c1ccccc1 was read as ID4 SMM inactive.
For O=C(C[C@H]1C[C@H]2c3cc(NC(=O)NC4CCCCC4)ccc3O[C@H]2[C@@H](CO)O1)NCc1ccccn1 the results were ID4 SMM inactive.
Screening CNC[C@@H]1Oc2ncc(C#Cc3ccncc3)cc2C(=O)N([C@H](C)CO)C[C@@H]1C returned ID4 SMM inactive.
`COc1ccc(OC)c(NC(=O)COc2cc(C)c(Br)c(C)c2)c1` gave ID4 SMM inactive.
CCCN(C)C[C@H]1Oc2ncc(C#CC3CC3)cc2C(=O)N([C@H](C)CO)C[C@H]1C was read as ID4 SMM inactive.
For COc1ccc(OC)c(S(=O)(=O)N(C)CC(=O)Nc2ccc(F)c(Cl)c2)c1 the results were ID4 SMM inactive.
For CN(C)c1ccc2c(c1)[C@H]1C[C@H](CC(=O)NC3CCCC3)O[C@@H](CO)[C@H]1O2 the results were ID4 SMM inactive.
`Cc1ccc(C)c(OCC(=O)Nc2cc(C(=O)O)cc(C(=O)O)c2)c1` gave ID4 SMM inactive.
For COC(=O)c1ccn(COc2ccccc2Cl)n1 the results were ID4 SMM inactive.
O=C(CSc1nc2ccccc2c(=O)[nH]1)Nc1ccc(Br)cc1 was read as ID4 SMM inactive.
For COC(=O)CCCC(=O)Nc1ccc([N+](=O)[O-])cc1 the results were ID4 SMM inactive.
Screening Cc1ccc([N+](=O)[O-])cc1N(CC(=O)Nc1ccc(I)cc1)S(C)(=O)=O returned ID4 SMM inactive.
`Cc1cccc(NC(=O)CNS(=O)(=O)c2ccc(Br)cc2)c1` gave ID4 SMM inactive.
Cc1ccc2c(CC(=O)Nc3cccc([N+](=O)[O-])c3)coc2c1C was read as ID4 SMM inactive.
For O=C(CC1CC1)Nc1ccc2c(c1)[C@@H]1C[C@@H](CC(=O)N3CCCCC3)O[C@H](CO)[C@@H]1O2 the results were ID4 SMM inactive.
For O=C(CN1C(=O)COc2ccc(Cl)cc21)Nc1ccc([N+](=O)[O-])cc1 the results were ID4 SMM inactive.
CCCN(C)C[C@@H]1Oc2ncc(-c3cccc(C(=O)N(C)C)c3)cc2C(=O)N([C@@H](C)CO)C[C@H]1C was read as ID4 SMM active.
Screening CC(C)CC#Cc1cnc2c(c1)C(=O)N([C@H](C)CO)C[C@@H](C)[C@H](CN(C)C(=O)c1ccc(F)cc1)O2 returned ID4 SMM inactive.
O=C(C[C@@H]1CC[C@H](NC(=O)c2cccc(F)c2)[C@H](CO)O1)NCc1ccc(Oc2ccccc2)cc1 was read as ID4 SMM inactive.
Screening C[C@H]1CN([C@@H](C)CO)S(=O)(=O)c2ccc(-c3cccnc3)cc2O[C@@H]1CN(C)C(=O)CN(C)C returned ID4 SMM inactive.
For COc1ccc(NC(=O)CCn2cnc3ccccc3c2=O)cc1OC the results were ID4 SMM inactive.
Screening C[C@@H]1CN([C@@H](C)CO)C(=O)c2cc(C3=CCCCC3)cnc2O[C@@H]1CN(C)Cc1ccccc1 returned ID4 SMM inactive.
Screening O=C(O)CCN1C(=O)c2ccc(NC(=O)c3ccco3)cc2C1=O returned ID4 SMM inactive.
`COc1ccccc1-c1cnc2c(c1)C(=O)N([C@@H](C)CO)C[C@@H](C)[C@@H](CN(C)Cc1ccncc1)O2` gave ID4 SMM inactive.
C[C@@H]1CN([C@@H](C)CO)S(=O)(=O)c2ccc(C3=CCCC3)cc2O[C@@H]1CN(C)Cc1ccccc1 was read as ID4 SMM inactive.
Screening O=C(Cc1ccccc1)N[C@@H]1C=C[C@H](CC(=O)N2CCCCC2)O[C@@H]1CO returned ID4 SMM inactive.
For CC(C)CC#Cc1cnc2c(c1)C(=O)N([C@H](C)CO)C[C@@H](C)[C@@H](CN(C)Cc1cccc(F)c1)O2 the results were ID4 SMM inactive.
COc1ccccc1-c1ccc2c(c1)O[C@H](CN(C)C)[C@H](C)CN([C@@H](C)CO)S2(=O)=O was read as ID4 SMM inactive.
For c1ccc2c(c1)OCC(c1nnc3sc(-c4ccncc4)nn13)O2 (stereo not given) the results were ID4 SMM inactive.
`Cc1ccnc(NCc2ccc(N(C)C)cc2)c1` gave ID4 SMM inactive.
CCOc1ccc(NC(=O)CSc2nc(-c3cccs3)cc(C(F)(F)F)c2C#N)cc1 was read as ID4 SMM inactive.
For C[C@H](CO)N1C[C@H](C)[C@@H](CN(C)C(=O)C2CCC2)Oc2ncc(Br)cc2C1=O the results were ID4 SMM inactive.
For COc1ccccc1S(=O)(=O)N[C@@H]1CC[C@H](CC(=O)N2CCCCC2)O[C@H]1CO the results were ID4 SMM inactive.
For CC(=O)O[C@H]1C[C@@]2(C)[C@@H](CC[C@H]3[C@@]4(C)C=CC(=O)[C@@H](C)[C@@H]4[C@H](OC(C)=O)C(=O)[C@@]32C)/C1=C(\CCC=C(C)C)C(=O)O the results were ID4 SMM inactive.
Screening C[C@@H]1CN([C@@H](C)CO)S(=O)(=O)c2ccc(C3=CCCC3)cc2O[C@H]1CN(C)Cc1ccccc1F returned ID4 SMM inactive.
CCN(CC(=O)Nc1ccc(C)c(Cl)c1)S(=O)(=O)c1ccc(Cl)cc1 was read as ID4 SMM inactive.
Screening COc1ccc(SCc2cc3c(F)c(F)c(F)c(F)c3o2)cc1 returned ID4 SMM inactive.
For CN1CCN(C(=O)C[C@@H]2CC[C@H](NC(=O)c3ccc4c(c3)OCO4)[C@H](CO)O2)CC1 the results were ID4 SMM inactive.
Screening N#Cc1ccc(NC(=O)CSc2nnnn2-c2ccccc2)cc1 returned ID4 SMM inactive.
Screening COC(=O)c1ccc(Cl)c(NC(=O)CN(c2ccccc2Br)S(C)(=O)=O)c1 returned ID4 SMM inactive.
COc1ccc(Cn2c(C)cc(O)cc2=O)cc1OC was read as ID4 SMM inactive.
CCC(=O)N[C@H]1CC[C@@H](CCn2cc(C3CC3)nn2)O[C@@H]1CO was read as ID4 SMM inactive.
Cc1cc(C)cc(NC(=O)CN2CCC(C(N)=O)(N3CCCCC3)CC2)c1 was read as ID4 SMM inactive.
Screening CCOC(=O)c1c(NC(=O)CSc2nnc(C)s2)sc2c1CCN(C)C2 returned ID4 SMM inactive.
Screening C[C@H](CO)N1C[C@H](C)[C@H](CN(C)C(=O)CC2CC2)Oc2ncc(C#CC3CC3)cc2C1=O returned ID4 SMM inactive.
COc1ccc(NC(=O)COc2ccc(Br)cc2C)c([N+](=O)[O-])c1 was read as ID4 SMM inactive.
`O/N=C1/CC(O)(C(F)(F)F)Oc2ccccc21` (stereo not given) gave ID4 SMM inactive.
`CC(=O)N(C)C[C@H]1Oc2ncc(C#C[C@@H](C)O)cc2C(=O)N([C@@H](C)CO)C[C@H]1C` gave ID4 SMM inactive.
`Cc1c(Cl)cccc1NC(=O)CC1NCCNC1=O` (stereo not given) gave ID4 SMM inactive.
Screening CN1CCN(C(=O)C[C@@H]2CC[C@H](NC(=O)c3ccc4c(c3)OCO4)[C@@H](CO)O2)CC1 returned ID4 SMM inactive.
Cc1cc(C)cc(NC(=O)CC2NCCNC2=O)c1 (stereo not given) was read as ID4 SMM inactive.
CC(C)NC(=O)N(C)C[C@@H]1Oc2ncc(C#CC3CCCC3)cc2C(=O)N([C@H](C)CO)C[C@@H]1C was read as ID4 SMM inactive.
For CC(CC(=O)O)CC(=O)Nc1ccc(C(=O)O)cc1 (stereo not given) the results were ID4 SMM inactive.
Screening CNC[C@H]1Oc2ncc(Br)cc2C(=O)N([C@H](C)CO)C[C@@H]1C returned ID4 SMM inactive.
For Cn1c(=O)c2ccccc2n(CC(=O)Nc2ccccc2[N+](=O)[O-])c1=O the results were ID4 SMM inactive.
Screening COc1ccc(OC)c(C2C(C(=O)Nc3ccccc3OC)=C(C)Nc3ncnn32)c1 (stereo not given) returned ID4 SMM inactive.
CCc1ccc(OCC(=O)Nc2ccc3oc(-c4ccc(OC)cc4)nc3c2)cc1 was read as ID4 SMM inactive.
COc1ccc(NC(=O)NCc2cccnc2)cc1OC was read as ID4 SMM inactive.
`C[C@H]1CN([C@@H](C)CO)C(=O)c2cc(C3=CCCC3)cnc2O[C@H]1CN(C)Cc1ccccc1` gave ID4 SMM inactive.
`CC(C)NC(=O)N[C@H]1C=C[C@H](CC(=O)NC2Cc3ccccc3C2)O[C@@H]1CO` gave ID4 SMM inactive.
Cc1ccc(-c2nc(S(=O)(=O)c3ccc(Br)cc3)c(SCC(N)=O)o2)cc1 was read as ID4 SMM inactive.
For C[C@H](NC(=O)C[C@H]1C[C@H]2c3cc(NC(=O)Cc4ccncc4)ccc3O[C@H]2[C@H](CO)O1)c1ccccc1 the results were ID4 SMM inactive.
Screening CO[C@@H](CN(C)Cc1ccc2c(c1)OCO2)[C@H](C)CN(C(=O)c1ccccc1)[C@@H](C)CO returned ID4 SMM inactive.
`CS(=O)(=O)N(CC(=O)Nc1cccc(Cl)c1Cl)c1ccc(F)c(Cl)c1` gave ID4 SMM inactive.
Cc1ccc(NC(=O)CNC(=O)c2ccc([N+](=O)[O-])cc2)cc1 was read as ID4 SMM inactive.
`COc1ccc(NC(=O)C(=O)NCC(=O)Nc2cccc(C(F)(F)F)c2)cc1` gave ID4 SMM inactive.
CCn1c(SCC(=O)Nc2cccc(SC)c2)nnc1-c1ccccc1Cl was read as ID4 SMM inactive.
Screening COC(=O)c1ccccc1NC(=O)CC(O)(C(F)(F)F)C(F)(F)F returned ID4 SMM inactive.
C[C@@H]1CN([C@H](C)CO)S(=O)(=O)c2ccc(C#C[C@@H](C)O)cc2O[C@H]1CN(C)C(=O)CN(C)C was read as ID4 SMM inactive.
`C[C@@H]1CN([C@@H](C)CO)C(=O)c2cc(Br)cnc2O[C@@H]1CN(C)CC1CCCC1` gave ID4 SMM inactive.
COc1ccc(S(=O)(=O)NCc2ccccn2)c(Cl)c1Cl was read as ID4 SMM inactive.
Screening COC(=O)c1ccc(NC(=O)CSc2nnc(-c3cnccn3)n2C)cc1 returned ID4 SMM inactive.
For COc1ccc(C)cc1NC(=O)C(C)NS(=O)(=O)c1ccc(C)cc1 (stereo not given) the results were ID4 SMM inactive.
C[C@H](CO)N1C[C@H](C)[C@@H](CN(C)C)Oc2ncc(C#CC3CCCCC3)cc2C1=O was read as ID4 SMM inactive.
COc1ccc(C(=O)N(Cc2nc(-c3ccc(C)cc3)no2)C(C)C)cc1 was read as ID4 SMM inactive.
Screening O=C(COc1ccccc1[N+](=O)[O-])Nc1ccc2nn(-c3ccc(F)cc3)nc2c1 returned ID4 SMM inactive.
`O=[N+]([O-])c1cccc(NC(=S)NCCn2cc(Cl)cn2)c1` gave ID4 SMM inactive.
Screening Cc1ccc2nsnc2c1S(=O)(=O)Nc1cccc2cccnc12 returned ID4 SMM inactive.
`C[C@@H]1CN([C@H](C)CO)C(=O)c2cc(-c3ccccc3)cnc2O[C@@H]1CN(C)Cc1cccnc1` gave ID4 SMM inactive.
For O=C(NCCCCCCNC(=O)ON=C1CCCCC1)ON=C1CCCCC1 the results were ID4 SMM inactive.
`CCC(=O)N(C)C[C@H]1Oc2ncc(-c3ccc(C)cc3)cc2C(=O)N([C@H](C)CO)C[C@H]1C` gave ID4 SMM inactive.
`C[C@@H]1CN([C@@H](C)CO)C(=O)c2cc(C3=CCCCC3)cnc2O[C@H]1CN(C)C(=O)c1cccc(F)c1` gave ID4 SMM inactive.
Cn1c(=O)nc2n(-c3ccc(Cl)c(Cl)c3)c3ccccc3cc-2c1=O was read as ID4 SMM inactive.

Twelve consecutive entries from above:
C[C@@H]1CN([C@H](C)CO)S(=O)(=O)c2ccc(C#C[C@@H](C)O)cc2O[C@H]1CN(C)C(=O)CN(C)C was read as ID4 SMM inactive.
`C[C@@H]1CN([C@@H](C)CO)C(=O)c2cc(Br)cnc2O[C@@H]1CN(C)CC1CCCC1` gave ID4 SMM inactive.
COc1ccc(S(=O)(=O)NCc2ccccn2)c(Cl)c1Cl was read as ID4 SMM inactive.
Screening COC(=O)c1ccc(NC(=O)CSc2nnc(-c3cnccn3)n2C)cc1 returned ID4 SMM inactive.
For COc1ccc(C)cc1NC(=O)C(C)NS(=O)(=O)c1ccc(C)cc1 (stereo not given) the results were ID4 SMM inactive.
C[C@H](CO)N1C[C@H](C)[C@@H](CN(C)C)Oc2ncc(C#CC3CCCCC3)cc2C1=O was read as ID4 SMM inactive.
COc1ccc(C(=O)N(Cc2nc(-c3ccc(C)cc3)no2)C(C)C)cc1 was read as ID4 SMM inactive.
Screening O=C(COc1ccccc1[N+](=O)[O-])Nc1ccc2nn(-c3ccc(F)cc3)nc2c1 returned ID4 SMM inactive.
`O=[N+]([O-])c1cccc(NC(=S)NCCn2cc(Cl)cn2)c1` gave ID4 SMM inactive.
Screening Cc1ccc2nsnc2c1S(=O)(=O)Nc1cccc2cccnc12 returned ID4 SMM inactive.
`C[C@@H]1CN([C@H](C)CO)C(=O)c2cc(-c3ccccc3)cnc2O[C@@H]1CN(C)Cc1cccnc1` gave ID4 SMM inactive.
For O=C(NCCCCCCNC(=O)ON=C1CCCCC1)ON=C1CCCCC1 the results were ID4 SMM inactive.
